Screening data as filed in PubChem BioAssay.
PKD1 kinase inh = inhibitors of human PKD1 kinase, biochemical, fluorescence polarization | 0.056% of 200,000 active | inhibition, %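 (about 10 µM by stock and volumes)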 | Serine/threonine-protein kinase D1 (Homo sapiens), Q15139 | PKD1 kinase fluorescence polarization assay;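 active = inhibition of 50% or more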;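 note: controls were vehicle for no effect and a reference inhibitor for full effect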
HSV replic up = enhancers of HSV replication in host cells, fold increase, host cell viability | HSV replication augmentation in cells | maximum fold increase | 0.005% of 220,000 active;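 active = peak rise of 1.5-fold or more in the series; tested in PC3 cells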;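 note: first round at 10 µM; read as green reporter fluorescence; hits show the peak of a series up to 25 µM; 1 = signal of infected wells without compound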
RGS16-Gao HTS = modulators of RGS16 binding to Galphao, primary screen, biochemical, human proteins, multiplexed bead flow cytometry | binding response (% of control), % at 10 µM | bead-based flow cytometry RGS16-Galphao binding, fluorescence; actives lie on both sides | Regulator of G-protein signaling 16 (Homo sapiens) + Guanine nucleotide-binding protein … | 0.38% of 220,000 active;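 active = below 25% or above 175%, edge rows of some plates excepted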;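 note: Galphao activated by GDP with aluminum fluoride before binding; 100% = wells without compound and 0% = beads without RGS; some results beyond the cut were filed as inactive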
Target sequence (O15492 whole entry, looked up): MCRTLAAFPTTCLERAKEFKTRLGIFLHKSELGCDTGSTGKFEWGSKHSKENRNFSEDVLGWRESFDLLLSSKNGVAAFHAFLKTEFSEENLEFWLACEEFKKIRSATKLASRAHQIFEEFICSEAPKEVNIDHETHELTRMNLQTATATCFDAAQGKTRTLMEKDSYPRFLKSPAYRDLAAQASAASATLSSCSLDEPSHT
Target sequence (P09471 whole entry, looked up): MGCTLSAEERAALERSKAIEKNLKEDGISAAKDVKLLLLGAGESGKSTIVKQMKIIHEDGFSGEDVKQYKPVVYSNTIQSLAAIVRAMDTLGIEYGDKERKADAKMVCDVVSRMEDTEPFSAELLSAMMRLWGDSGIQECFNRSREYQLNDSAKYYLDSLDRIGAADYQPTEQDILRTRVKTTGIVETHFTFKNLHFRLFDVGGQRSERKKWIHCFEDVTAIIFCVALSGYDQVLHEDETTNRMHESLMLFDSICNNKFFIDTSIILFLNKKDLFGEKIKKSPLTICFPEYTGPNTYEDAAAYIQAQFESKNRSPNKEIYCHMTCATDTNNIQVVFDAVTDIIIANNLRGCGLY
Insulin prom inh = inhibitors of insulin promoter-driven GFP, primary screen, imaging, TRM-6 cells (human fetal islet line), eGFP reporter, cell count; 0.9% of 130,000 active; AID 1273, 2008; inhibition, % at 2 µM; reporter expression induced with tamoxifen;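 active = inhibition above the mean plus 3 SD, with well images judged a real hit on visual review, cut at about 60% in these data, passing the limit was not always enough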
GALR2 ag = GALR2 receptor agonists, primary screen, cell-based; Galanin receptor type 2 (Homo sapiens), O43603; GALR2-expressing cells, agonist activation read-out; activation, %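 (tested at 5 µM)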; 0.48% of 140,000 active;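 active = above mean plus 3 SD of all compounds, about 5% in these data, not always enough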;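 note: 0% = vehicle buffer wells and 100% = reference agonist at full effect; tested in CHO reporter cells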
Target sequence (O43603 whole entry, looked up): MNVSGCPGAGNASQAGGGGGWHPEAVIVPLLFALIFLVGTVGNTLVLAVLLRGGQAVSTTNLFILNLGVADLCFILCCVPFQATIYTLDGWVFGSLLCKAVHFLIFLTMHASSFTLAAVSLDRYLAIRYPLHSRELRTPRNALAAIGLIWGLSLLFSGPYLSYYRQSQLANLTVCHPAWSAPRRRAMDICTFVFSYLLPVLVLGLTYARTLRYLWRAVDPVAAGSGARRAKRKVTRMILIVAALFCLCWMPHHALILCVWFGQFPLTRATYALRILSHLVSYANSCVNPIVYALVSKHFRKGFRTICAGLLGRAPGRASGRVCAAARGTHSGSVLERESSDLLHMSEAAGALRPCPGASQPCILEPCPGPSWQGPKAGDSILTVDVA
Insulin prom inh cell count = also measured in Insulin prom inh; calls as there; normalized cell count, %; measured here: cell count, toxicity; reference of the scale not given here;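 cells exposed to compound for 48 h; stained nuclei by imaging scaled within each plate; lower means fewer cells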
HSV replic up primary fold = further read-out of HSV replic up, marked with its call; fold increase; compound at 10 µM; measured here: primary screen fold increase 10 uM; tested in PC3 cells;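 GFP signal in the first replicate; 1 = infected wells without compound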
Starred values were filed as active, the others as inactive; i = inactive; · = not tested or not shown.

smiles	PKD1 kinase inh	HSV replic up	HSV replic up primary fold	RGS16-Gao HTS	Insulin prom inh	Insulin prom inh cell count	GALR2 ag
O=c1c2ccccc2nc(COc2ccccc2)n1/N=C/c1c[nH]c2ccccc12	2.3	i	0.82	99.1	·	·	-0.3
CCOc1cccc(C2C(C#N)=C(N)Oc3cc(C)n(Cc4ccccn4)c(=O)c32)c1OCC (stereo unspecified)	-17.9	i	0.97	103.8	·	·	-1.4
CCOc1ccc2nc(SCC(=O)NCc3ccco3)sc2c1	8.6	i	0.93	100.3	·	·	-1.9
Cc1cc(C(=O)OCC(=O)NC(=O)NC(C)(C)C)c(C)o1	-0.7	i	0.95	95.7	·	·	-0.6
COc1cc(/C=N/NC(=O)CC2(C)OCCCO2)ccc1OCc1ccc(Cl)cc1Cl	-3.0	i	0.92	82.9	-26.9	84.8	-1.5
Cc1cccc(OCC(=O)Nc2nnc(-c3ccco3)s2)c1	-4.8	i	1.02	106.0	6.7	54.8	·
COc1ccc(N/C=C(\C2OC(=O)c3ccccc32)[N+](=O)[O-])cc1 (stereo unspecified)	-9.1	i	0.83	97.3	·	·	·
COCC(=O)OCn1nnc2ccccc2c1=O	-8.0	i	0.96	84.8	-18.8	137.6	-3.6
C[C@](N)(Cc1ccc(O)c(O)c1)C(=O)O	-8.9	i	1.09	105.5	42.9	67.7	-0.9
CC(=O)Nc1ccc(C(=O)N/N=C/c2ccc(F)cc2)cc1	-2.5	i	0.9	100.3	-13.5	48.1	·
CCN1CCN(c2nc3sc4c(c3c3ncnn23)CC(C)CC4)CC1 (stereo unspecified)	-7.9	i	1	119.0	66.7	100.9	-0.2
CCCNC(=O)c1ccc2c(=O)c(O)c(C)[nH]c2c1	·	i	1.13	93.7	·	·	·
c1ccc(-c2nc3ccccc3c3nncn23)cc1	2.0	·	·	100.5	·	·	-2.2
COc1cc(/C=C2\C(=O)NN(c3ccccc3)C2=O)ccc1OCC(N)=O	-0.8	i	0.99	107.9	0.0	181.6	·
Cc1nn(C)c(C)c1S(=O)(=O)N(CC(=O)NCc1ccco1)c1ccc(C(C)C)cc1	-12.4	i	0.98	86.4	·	·	-1.0
N=c1n(CCN2CCCCC2)c2ccccc2n1CC(O)c1cccc(Br)c1 (stereo unspecified)	5.4	i	0.78	100.1	-6.9	117.6	-1.9
COc1ccc(-c2[nH]ncc2CN2CCCC2c2nonc2C)c(F)c1 (stereo unspecified)	-3.7	i	0.91	112.3	·	·	·
Cc1noc(C)c1C(=O)NCc1ccccc1Br	-1.1	i	0.99	95.0	·	·	·
CCOC(=O)c1cnc(SCc2cccc(C)c2)nc1N	-2.1	i	0.99	105.5	26.3	132.9	0.6
COc1ccc(-c2ccc(SCC(=O)c3ccccc3)nn2)cc1OC	-0.1	i	1.08	100.5	·	·	·
COc1ccc(-c2cc(C(F)(F)F)nc(N3CCN(C)CC3)n2)cc1OC	-3.3	i	0.79	100.7	0.0	69.4	1.8
CCCCN(CCCC)C(=O)CSc1nnc2n(C)c(=O)c3c4c(sc3n12)CCCC4	-1.5	i	0.97	93.0	24.0	100.5	-1.5
O=C1c2ccccc2C(=O)c2c1ccc(C(=O)N1CCCCC1)c2NCCO	-6.1	i	0.85	96.4	-42.9	186.6	0.5
Cc1cc(C)cc(OCCNC(=O)C(C)N2C(=O)c3ccccc3C2=O)c1 (stereo unspecified)	-9.6	i	0.91	96.4	23.5	105.6	·
CCN(CC)S(=O)(=O)N1CCC(C(=O)NCc2ccco2)CC1	-10.0	i	1.08	103.9	·	·	·
O=C(O)C1CSC(c2ccncc2)N1 (stereo unspecified)	-2.5	i	0.89	92.7	-17.9	152.2	0.3
COC(=O)C1=C(C)N(CCc2c[nH]c3ccccc23)C(=O)/C1=C\N(C)C	-5.4	i	0.95	108.8	-408.6	59.0	·
Cc1noc(C)c1S(=O)(=O)Nc1ccc(C(=O)N2CCN(c3ccc(F)cc3)CC2)cc1	-3.4	i	0.83	104.6	·	·	·
Cc1ccc(NS(=O)(=O)c2ccc(NC(=O)[C@@H]3CCCC[C@@H]3C(=O)O)cc2)c(C)c1	-3.1	i	1.04	96.7	41.7	111.9	4.7
COc1ccc(NC(=O)C2C(=O)N(CCO)C3(C)CC2c2ccccc2O3)cc1 (stereo unspecified)	0.1	i	0.94	101.5	·	·	-2.0

Going on with the list.
smiles	PKD1 kinase inh	HSV replic up	HSV replic up primary fold	RGS16-Gao HTS	Insulin prom inh	Insulin prom inh cell count	GALR2 ag
CC(=O)NS(=O)(=O)c1ccc(NC(=O)CCc2ccccc2)cc1	-9.2	i	0.96	78.9	·	·	-1.6
Cc1c(C(C)(C)C)c(C=S)n2ccccc12	13.2	i	0.99	89.6	-40.0	96.0	-1.2
CCOc1cc(/C=N/Nc2nc3ccccc3[nH]2)cc(Br)c1OCC(=O)N(C)C	-1.6	i	0.77	102.8	53.3	119.8	·
CN1c2ccccc2C(C)(C)C12C=Cc1cc(O)ccc1O2 (stereo unspecified)	-3.4	i	1.26	88.2	-72.7	99.5	0.1
O=C(O)CCN1C(=O)c2ccncc2C1=O	-9.8	i	0.99	101.8	·	·	-2.0
CCC(C)c1ccccc1NC(=O)COC(=O)c1ccc2c(c1)S(=O)(=O)c1ccccc1C2=O (stereo unspecified)	8.8	i	1.05	101.3	·	·	-0.5
O=C(COC(=O)c1nc(Cl)ccc1Cl)Nc1ccc2c(c1)OCO2	1.6	i	1.05	114.6	·	·	·
CC(C)CNC(=O)c1cccc(Cn2cc(Cl)cn2)c1	-7.7	i	0.95	107.0	·	·	-1.6
O=C(Nc1cscc1S(=O)(=O)c1ccc(Cl)cc1)c1ccccc1Cl	·	i	1.01	102.1	·	·	·
C=CCc1ccc(OCCOCCOc2cccc3ccc(C)nc23)c(OC)c1	9.2	i	1.06	102.6	11.4	134.6	-1.9
COc1ccc(OCCN(C)Cc2ccccc2)cc1	-8.1	i	0.9	93.6	50.0	116.6	-2.2
CC(=O)NC(CCS(C)(=O)=O)C(=O)Nc1ccc(Oc2ccccc2)cc1 (stereo unspecified)	0.2	i	0.93	99.5	·	·	-0.8
COc1ccccc1CNC(=O)C1CC(c2ccccc2C(F)(F)F)=NO1 (stereo unspecified)	·	i	0.86	100.8	·	·	·
CCCCCOc1ccccc1C(=O)NCC(=O)O	4.7	i	1.11	101.9	0.0	77.4	-0.7
O=C(Nc1cccc([N+](=O)[O-])c1)c1ccncc1	3.8	i	0.99	98.8	38.8	122.6	0.7
CCC(=O)N1CCc2cc(S(=O)(=O)NC(C(=O)Nc3cccc(C)n3)C(C)C)ccc21 (stereo unspecified)	-0.1	i	1.16	104.2	·	·	-2.2
CCOc1ccc(-c2nnc(SCC(=O)N3CCN(c4ccccc4)CC3)o2)cc1	-3.3	i	1.02	101.6	·	·	-0.6
CNC(=O)c1[nH]cnc1C(=O)N[C@@H](Cc1ccccc1)C(=O)OCc1ccccc1	6.1	i	0.59	101.7	·	·	·
CC(C)C(=O)N/N=C/c1ccc(OCc2ccccc2)cc1	-2.5	·	·	91.9	10.7	89.2	-0.5
COc1ccc(C(=O)C2CCN(C(=S)NCCc3ccccc3)CC2)cc1	6.9	i	0.9	99.9	·	·	·
O=C(CN1C(=O)c2ccccc2S1(=O)=O)N1CCN(c2ccccc2)CC1	-3.5	i	0.92	80.0	22.7	133.2	-3.8
Cc1ccc(S(=O)(=O)N2CCC(=O)N(C(COCc3ccc(C(F)(F)F)cc3)Cc3ccccc3)CC2)cc1 (stereo unspecified)	-10.7	i	0.97	103.5	-57.1	63.2	-0.9
CCCC(=O)Nc1ccc(C(=O)N/N=C/c2cccnc2)cc1	2.7	i	0.7	100.4	-6.7	70.6	-0.2
Cc1ccc(N=Cc2nc(-c3ccc(C)cc3)oc2O)cc1	1.6	i	0.98	103.2	·	·	·
Cc1cc(C(=O)Cn2nnc3ccccc3c2=O)c(C)n1-c1c(C)n(C)n(-c2ccccc2)c1=O	-5.8	i	0.82	99.0	-25.8	119.5	-2.1
CCOc1cccc(NCc2cc3c(C(C)(C)C)nn(-c4ccccc4)c3[nH]c2=O)c1	-5.3	i	0.88	101.3	-7.1	113.0	2.2
COc1ccc(NC(=O)CC2C(=O)N(c3cccc(OC)c3)C(=O)N2CCC(C)C)cc1 (stereo unspecified)	-1.6	i	0.98	93.1	13.3	88.3	-0.2
O=C(c1ccccc1/S(=N/S(=O)(=O)c1ccccc1)N1CCOCC1)N1CCOCC1 (stereo unspecified)	1.1	i	0.88	103.5	·	·	-1.2
COc1ccccc1COn1c(=O)c(-c2ccco2)[n+]([O-])c2ccccc21	-10.5	i	0.94	99.0	·	·	·
COc1ccc(NC(=O)N2CCCC(CNS(=O)(=O)c3cccs3)C2)c(C)c1 (stereo unspecified)	2.0	i	0.9	116.2	·	·	·

Next section.
smiles	PKD1 kinase inh	HSV replic up	HSV replic up primary fold	RGS16-Gao HTS	Insulin prom inh	Insulin prom inh cell count	GALR2 ag
Clc1ccc(Nc2ncn[nH]2)cc1	4.5	i	0.9	101.1	-24.0	42.4	0.3
Cc1ccc(S(=O)(=O)NCCOc2nc(N3CCOCC3)nc(N3CCOCC3)n2)cc1	4.7	i	1.01	105.2	3.6	166.1	-0.1
CSc1nc(-c2ccc(C)cc2)[nH]c1S(=O)(=O)c1ccccc1	-9.1	i	0.88	98.7	35.9	155.4	0.3
CCCC(C(=O)NC1CCCC1)N(Cc1ccc2c(c1)OCO2)C(=O)c1snc(C(N)=O)c1N (stereo unspecified)	10.8	i	0.94	105.7	2.9	88.8	-0.8
COC(=O)CNC(=O)c1ccc(=O)oc1	3.6	i	0.89	101.4	·	·	0.0
NC1=NC(=O)/C(=C/c2cn(Cc3ccccc3)c3ccccc23)S1	8.3	i	1.33	99.8	·	·	5.3*
O=C(OCc1csc(-c2ccccc2)n1)c1ccc(O)cc1	-1.5	i	0.95	103.5	·	·	·
Cc1noc(C)c1C(=O)N1CCC(C(=O)c2ccc(F)cc2F)CC1	·	i	1.14	85.1	·	·	·

An excerpt of these results, with two lines to a compound.
Every second line gives: PKD1 kinase inh | HSV replic up | HSV replic up primary fold | RGS16-Gao HTS | Insulin prom inh | Insulin prom inh cell count | GALR2 ag
CCCC(=O)Nc1ccc(C(=O)N/N=C/c2cccnc2)cc1
    2.7 | i | 0.7 | 100.4 | -6.7 | 70.6 | -0.2
Cc1ccc(N=Cc2nc(-c3ccc(C)cc3)oc2O)cc1
    1.6 | i | 0.98 | 103.2 | · | · | ·
Cc1cc(C(=O)Cn2nnc3ccccc3c2=O)c(C)n1-c1c(C)n(C)n(-c2ccccc2)c1=O
    -5.8 | i | 0.82 | 99.0 | -25.8 | 119.5 | -2.1
CCOc1cccc(NCc2cc3c(C(C)(C)C)nn(-c4ccccc4)c3[nH]c2=O)c1
    -5.3 | i | 0.88 | 101.3 | -7.1 | 113.0 | 2.2
COc1ccc(NC(=O)CC2C(=O)N(c3cccc(OC)c3)C(=O)N2CCC(C)C)cc1 (stereo unspecified)
    -1.6 | i | 0.98 | 93.1 | 13.3 | 88.3 | -0.2
O=C(c1ccccc1/S(=N/S(=O)(=O)c1ccccc1)N1CCOCC1)N1CCOCC1 (stereo unspecified)
    1.1 | i | 0.88 | 103.5 | · | · | -1.2
COc1ccccc1COn1c(=O)c(-c2ccco2)[n+]([O-])c2ccccc21
    -10.5 | i | 0.94 | 99.0 | · | · | ·
COc1ccc(NC(=O)N2CCCC(CNS(=O)(=O)c3cccs3)C2)c(C)c1 (stereo unspecified)
    2.0 | i | 0.9 | 116.2 | · | · | ·
Clc1ccc(Nc2ncn[nH]2)cc1
    4.5 | i | 0.9 | 101.1 | -24.0 | 42.4 | 0.3
Cc1ccc(S(=O)(=O)NCCOc2nc(N3CCOCC3)nc(N3CCOCC3)n2)cc1
    4.7 | i | 1.01 | 105.2 | 3.6 | 166.1 | -0.1
CSc1nc(-c2ccc(C)cc2)[nH]c1S(=O)(=O)c1ccccc1
    -9.1 | i | 0.88 | 98.7 | 35.9 | 155.4 | 0.3
CCCC(C(=O)NC1CCCC1)N(Cc1ccc2c(c1)OCO2)C(=O)c1snc(C(N)=O)c1N (stereo unspecified)
    10.8 | i | 0.94 | 105.7 | 2.9 | 88.8 | -0.8
COC(=O)CNC(=O)c1ccc(=O)oc1
    3.6 | i | 0.89 | 101.4 | · | · | 0.0
NC1=NC(=O)/C(=C/c2cn(Cc3ccccc3)c3ccccc23)S1
    8.3 | i | 1.33 | 99.8 | · | · | 5.3*
